Screening results as filed in PubChem.
RN4220 kill – S. aureus RN4220 growth inhibition; OD600, 16 h; inhibition, % (no concentration beside the values); 330,000 compounds, 0.33% hits;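 active = z-score of -3 or lower and OD600 up to 0.18 on both plates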;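 note: plate controls were untreated cells for no effect and reference antibiotic for full effect; stock transfer was 100 nL into about 80 µL; one replicate is shown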
Sa ugtP lethal – growth inhibition of S. aureus ugtP deletion strain; growth inhibition, % (no concentration beside the values); AID 1259309; S. aureus RN4220 ugtP deletion, OD600 growth, 16 h; some inactives read as strong as hits; 330,000 compounds, 0.54% hits;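 active = z-score under -3 and OD600 up to 0.15 on both plates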;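 note: plate controls were untreated wells for no effect and antibiotic for full effect; wells of about 80 µL received 100 nL stock; the first replicate is given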
BJeLR viability – kills HRASV12-expressing BJeLR cells | BJeLR (HRASV12) viability, CellTiter-Glo ATP luminescence, 48 h; reference of the scale not given here | inhibition, % (test concentration not listed) | 300,000 compounds, 0.17% hits;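 active = replicate mean above 50%; inconclusive = above 50% but judged a plate artefact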;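 note: 50 nL library stock added to about 25 µL; numbers are from one replicate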
Autofluor counter – flagged as autofluorescent in microsphere protease counterscreen | compound autofluorescence counterscreen, microsphere flow cytometry; stronger effect = higher value | fluorescence intensity (concentration not given with the values) | 360,000 compounds, 3.1% hits;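 active = at least 3 SD above the mean of all compounds, about 16000 in these data; inconclusive = too few beads counted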;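 note: 100 nL of 1 mM stock went into each well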
PrP UTR inh – inhibition of PrP 5' UTR reporter expression. cell-based PrP 5' UTR mRNA reporter, plate reader. inhibition, % (concentration not given with the values). AID 488862. 340,000 compounds, 0.35% hits;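 active = every replicate at 50% or more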;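 note: 0 = median of the neutral control wells; tested in H4 reporter cells; numbers are from one replicate; inactives centre near -14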
Mtb hypoxia inh – Mtb hypoxia fluorescent reporter inhibition. M. tuberculosis hypoxia-regulated fluorescent reporter, fluorescence. fluorescence inhibition, % (concentration not given with the values). 300,000 compounds, 0.1% hits;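 active = 35 to 45% if threefold the growth effect, above 45% if 1.5-fold the growth effect; inactive = the rest, general growth blockers included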;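 note: wells of about 50 µL received 100 nL stock; 0% = vehicle wells and 100% = reference inhibitor wells; whole bacteria with a GFP reporter of the hypoxia response; strong numbers were not always called active; many hits fall short of the cut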
Mtb hypoxia inh growth – further read-out of Mtb hypoxia inh, marked with its call; growth inhibition, %; measured here: M. tuberculosis growth (absorbance);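 0% = vehicle and 100% = reference antibiotic; read after six days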
* = called active by the depositor; ? = inconclusive; / = not tested or not shown. Not a hit list; overall some 4.1% were active at least once.

SMILES | RN4220 kill | Sa ugtP lethal | BJeLR viability | Autofluor counter | PrP UTR inh | Mtb hypoxia inh | Mtb hypoxia inh growth
CC(CC(=O)Nc1nnc(CC(C)(C)C)s1)c1ccccc1 (stereo unspecified) | 6.3 | 15 | -8 | 3368 | 16 | 2 | -1
COc1c(F)c(F)c(C(=O)Nc2ccccc2N2CCN(C(=O)C(C)C)CC2)c(F)c1F | 7.7 | 12 | 16 | 2396 | 1 | 6 | 11
CCCOc1cccc(C(=O)N(Cc2ccc(OC)c(OC)c2)C2CCS(=O)(=O)C2)c1 (stereo unspecified) | -1.1 | -4 | -16 | 23243* | 22 | -3 | 0
O=c1c2c(nc3nc[nH]n13)CCC2 | 3.6 | 1 | -2 | 2924 | -2 | 2 | -5
O=C(C1=C(O)C(=O)N(Cc2ccccc2)C1c1cccnc1)c1ccco1 (stereo unspecified) | -0.3 | 0 | -10 | 6896 | 3 | 2 | 12
COc1ccc(/C=N/S(=O)(=O)c2ccc(C)cc2)cc1 | / | / | 12 | 5446 | -9 | / | /
c1ccc2[nH]c(CSc3nc4ccccc4s3)nc2c1 | -2.3 | 1 | 13 | 2553 | -47 | 4 | 10
CCSC1=NCCN1S(=O)(=O)c1ccc2ccccc2c1 | 5.4 | 12 | -9 | 2189 | -29 | 12 | 3
Cc1ccc(S(=O)(=O)Nc2nc(N)n(-c3ccccc3)n2)cc1 | -2.6 | -6 | 5 | 4202 | -26 | -7 | 1
O=C(CSc1nnnn1-c1ccccc1)NC1CCCc2ccccc21 (stereo unspecified) | 1.4 | 9 | 2 | 2093 | -26 | 7 | 4
COc1ccc(N2CC(C(=O)NCCN3C(=O)S/C(=C\c4cccnc4)C3=O)CC2=O)c(OC)c1 (stereo unspecified) | / | / | 2 | ? | -19 | / | /
Cc1cccn2c(=O)c3cc(C(=O)NCC4CCCO4)c(=N)n(CC4CCCO4)c3nc12 (stereo unspecified) | 1.8 | 0 | -14 | 5072 | -15 | -12 | -5
O=C(Cc1ccc(Cl)cc1)N1CCN(c2ccccc2)CC1 | 1.6 | 7 | -8 | 3065 | -6 | 9 | 2
O=c1[nH]cnc2cc(-c3ccccc3)sc12 | 10 | -15 | 10 | 8547 | -38 | 5 | 4
Cc1cccc(NC(=O)CCC2CCN(C(=O)c3ccc(C)s3)CC2)c1 | -1.3 | -5 | 3 | 5105 | -65 | -4 | 9
COc1ccccc1-n1cnnc1SCC(=O)N1CCN(C(=O)c2ccco2)CC1 | 2.7 | 0 | -12 | 4914 | -67 | 9 | 4
CC(=O)NC12CC3CC(C1)CC(C(=O)Nc1nc4c(C)cccc4s1)(C3)C2 | 0.2 | -7 | -9 | 5974 | 5 | 11 | 2
Cc1ccc(N=C2S/C(=C\c3cn(CC(=O)O)c4ccccc34)C(=O)N2C)cc1 | 10 | -8 | -1 | 2165 | -14 | -9 | -3
CCC1(CC)C(=O)NC(=O)NC1=NCCc1c[nH]c2ccccc12 | 2.5 | 2 | 2 | 21453* | -24 | 2 | 1
COc1cccc(C(=O)Nc2ncc3c(n2)CC(C)CC3=O)c1 (stereo unspecified) | 1.9 | 0 | 5 | 24790* | -27 | -3 | 12
O=C(NCC1CCCO1)c1ccc([N+](=O)[O-])o1 (stereo unspecified) | 3.0 | 9 | 2 | 7672 | -1 | -3 | 13
O=C(NCc1ccccc1F)C1CCCN(c2cnccn2)C1 (stereo unspecified) | 1.7 | 3 | -3 | 5721 | 1 | -3 | 6
CCOC(=O)c1c(-c2ccc(OC)cc2)csc1N=CC1C(=O)CCCC1=O | 7.9 | 54 | / | / | / | 7 | -4
O=C(COc1c(F)c(F)cc(F)c1F)NNC(=O)CC1CCS(=O)(=O)C1 (stereo unspecified) | -0.2 | -1 | / | 3686 | -9 | 1 | 2
c1ccc2[nH]c(SCCN3CCOCC3)nc2c1 | 4.5 | 7 | 7 | 8148 | -16 | 17 | 6

Next compounds
SMILES | RN4220 kill | Sa ugtP lethal | BJeLR viability | Autofluor counter | PrP UTR inh | Mtb hypoxia inh | Mtb hypoxia inh growth
CON1C(=O)CN(C(C)=O)C1c1ccc(Cl)cc1Cl (stereo unspecified) | 2.6 | -1 | / | 8010 | 9 | 4 | 15
O=C(Nc1ccc2c(c1)CCC2)c1ccc(F)cc1 | / | / | 8 | 2600 | -19 | / | /
O=C(Nc1ccccc1N1CCCC1)c1ccc(N2CCCC2=O)cc1 | 3.9 | 3 | -3 | 5296 | -1 | 4 | 15
COc1ccc(-n2c(C)nc3c(cnn3-c3ccc(C)c(C)c3)c2=O)cc1 | 4.2 | 12 | 20 | 4412 | -10 | 4 | 6
COC(=O)c1sccc1-n1cccc1C(=O)C(=O)N1CCCCC1 | 1.8 | -4 | -7 | 4161 | -4 | / | /
O=c1nc(-c2ccccc2)c2cc(Br)ccc2[nH]1 | 6.1 | 14 | 3 | 2821 | -5 | -10 | 4
c1ccc2[nH]c(CN3CCCCCC3)nc2c1 | -1.0 | 7 | -16 | 20479* | -31 | 2 | -1
CCc1ccc(CNC(=O)CCCn2c(=O)c3cccn3c3cccnc32)cc1 | -1.5 | -1 | 1 | 4271 | -22 | -1 | 2
CCOC(=O)C1CCN(CC(=O)Nc2ccc(S(=O)(=O)N3CCC(C)CC3)cc2)CC1 | 1.8 | 2 | -1 | 3639 | 7 | 9 | -2
COc1cc(/C=C/C(=O)O)cc(S(=O)(=O)Nc2ccc3[nH]c(=O)[nH]c3c2)c1OC | -2.5 | 10 | -9 | 5018 | -21 | 10 | 8
COc1ccc2cnn(-c3ccc(OC(F)(F)F)cc3)c(=O)c2c1OC | 3.9 | 6 | 3 | / | -47 | 6 | 3
Nc1ncnc2[nH]c(=S)[nH]c12 | -2.6 | -6 | / | 3345 | -7 | -5 | -4
Cn1cnc2c1c(=O)n(Cc1cccc(F)c1)c(=O)n2C | 2.1 | 6 | -2 | 4097 | -2 | 13 | 3
Cn1c(=O)c2cc3ccc(Cl)cc3nc2n(C)c1=O | 5.9 | 9 | -3 | 5893 | / | -14 | -14
COc1cc(/C=C2/SC(=O)N(Cc3ccccc3)C2=O)ccc1OCc1ccncc1 | / | / | 10 | 3157 | -16 | / | /
COc1cccc(NC(=S)NN=C2CC3CCC2(C)C3(C)C)c1 (stereo unspecified) | 7.4 | 7 | / | / | / | 0 | 21
CC(C)n1cnnc1SCC(=O)Nc1cccc(S(=O)(=O)N(C)c2ccccc2)c1 | 4.1 | 4 | 12 | 4644 | -36 | 11 | -4
O=C(CSc1ccc2nnc(-c3ccncc3)n2n1)NCC1CCCO1 (stereo unspecified) | 2.9 | -2 | -7 | 5690 | -17 | 2 | 4
Cc1cc(OCC(=O)N(Cc2ccccc2)C2CCS(=O)(=O)C2)ccc1Cl (stereo unspecified) | 3.9 | 0 | -11 | 5186 | -10 | -2 | 2
O=C(NC(=O)c1cccc(OC(F)(F)C(F)F)c1)OC1CCS(=O)(=O)C1 (stereo unspecified) | 5.4 | 0 | 6 | 24101* | -17 | 5 | 9
Cc1c(C(=O)NC2CCCc3ccccc32)cccc1[N+](=O)[O-] (stereo unspecified) | 8.8 | 0 | -7 | 4397 | -12 | 1 | -1
Cc1cccc(-c2ccc3c(c2)C2CC3CCN2C(=O)OCc2ccccc2)c1 (stereo unspecified) | 0.3 | 45 | / | 3682 | -28 | -20 | -2
Cc1ccc(C(=O)NCC2(c3ccccc3)CCCC2)cc1 | 9.5 | -14 | 8 | 3424 | -10 | 17 | 4
O=c1[nH]c(=O)c2nc3c4ccccc4c4ccccc4c3nc2[nH]1 | / | / | 3 | 2736 | -17 | / | /
O=C(C1CCCN1S(=O)(=O)c1ccc(Cl)cc1)N1CCCCC1 (stereo unspecified) | 1.9 | 5 | 3 | 6642 | -7 | 2 | 3

Retrieved by structure from the entries so far:
SMILES | RN4220 kill | Sa ugtP lethal | BJeLR viability | Autofluor counter | PrP UTR inh | Mtb hypoxia inh | Mtb hypoxia inh growth
Cc1ccc(N=C2S/C(=C\c3cn(CC(=O)O)c4ccccc34)C(=O)N2C)cc1 | 10 | -8 | -1 | 2165 | -14 | -9 | -3
Cn1cnc2c1c(=O)n(Cc1cccc(F)c1)c(=O)n2C | 2.1 | 6 | -2 | 4097 | -2 | 13 | 3

Next entries:
SMILES | RN4220 kill | Sa ugtP lethal | BJeLR viability | Autofluor counter | PrP UTR inh | Mtb hypoxia inh | Mtb hypoxia inh growth
CCOc1ccc(-n2c(C)cc(C(=O)CCl)c2C)cc1 | 79 | 22 | 44 | 4895 | -13 | 6 | 8
CCC(=O)N(Cc1cc2cc(OC)ccc2[nH]c1=O)c1cccc(C)c1 | -4.9 | -11 | 2 | 9612 | -20 | 0 | -5
COc1ccc(NS(=O)(=O)c2cccc(C(=O)NNC(=O)c3ccc(NC(C)=O)cc3)c2)cc1 | / | / | -1 | ? | -15 | / | /
O=C(Nc1cccc2ccccc12)c1nn(C23CC4CC(CC(C4)C2)C3)cc1[N+](=O)[O-] | 5.9 | -11 | 3 | 24019* | -25 | 5 | 8
COc1cc(C2NCCC(=O)C2(C)C)cc(OC)c1OC (stereo unspecified) | 2.3 | 5 | 1 | 2077 | -16 | 8 | 12
CC(C)CN(C(=O)c1cc([N+](=O)[O-])cc([N+](=O)[O-])c1)C1CCS(=O)(=O)C1 (stereo unspecified) | -3.0 | 7 | 3 | 6115 | -14 | 8 | -4
CCOC(=O)c1cccc(N2C(=O)C3C(C2=O)C2C=CC3C23CC3)c1 (stereo unspecified) | 6.6 | -2 | 2 | 3445 | -8 | 2 | 4
O=S(=O)(Nc1cccc(CCc2ccccn2)c1)c1ccc(Cl)cc1 | -0.5 | 4 | -2 | 5347 | -54 | -5 | 9
CC(=O)Oc1c(Cl)cc(N(C(C)=O)S(=O)(=O)c2ccccc2)c2ccccc12 | 15 | 9 | 3 | 6106 | / | -1 | 13
COc1ccc(S(=O)(=O)Nc2ccc(F)c(Cl)c2)cc1OC | 8.5 | -6 | -6 | 2434 | 1 | 10 | 6
COC(=O)c1ccc(OC(=O)CCS(=O)(=O)c2ccc(C)cc2)cc1 | -3.3 | 0 | -4 | 5664 | -19 | -9 | 2
CC(C)(C)C1(O)CC(C(F)(F)F)=NN1C(=O)CCc1ccccc1 (stereo unspecified) | 10 | 2 | 13 | 2066 | -11 | 7 | 10
CSc1nsc(SC)c1C(=O)Nc1ccc(C(C)(C)C)cc1 | 1.0 | 4 | 8 | 3566 | -26 | -3 | -3
CN(C)C(=O)CSc1nnc(CCCCCNC(=O)OC(C)(C)C)o1 | 2.5 | 14 | -7 | ? | -7 | 5 | 0
CCN1CCN(C(C(=O)NC2CCCC2)c2ccc(Cl)cc2)CC1 (stereo unspecified) | 1.2 | 12 | 1 | 5618 | -15 | 10 | 5
CCCCn1nnc(NC(=S)NC(=O)c2ccc(-c3cccc(Cl)c3Cl)o2)n1 | 9.7 | -13 | 11 | 2129 | -6 | -7 | 16
COC(=O)[C@H](CCSC)NC(=O)NCCC1=CCCCC1 | 1.3 | 4 | -5 | 11220 | -8 | 4 | 4
Cc1cc(C)c(C)c(OCC(=O)NCC2CCCO2)c1 (stereo unspecified) | 2.8 | 2 | 10 | 8887 | -29 | 11 | 5

Among those listed so far, these have fluorine:
SMILES | RN4220 kill | Sa ugtP lethal | BJeLR viability | Autofluor counter | PrP UTR inh | Mtb hypoxia inh | Mtb hypoxia inh growth
COc1c(F)c(F)c(C(=O)Nc2ccccc2N2CCN(C(=O)C(C)C)CC2)c(F)c1F | 7.7 | 12 | 16 | 2396 | 1 | 6 | 11
O=C(NCc1ccccc1F)C1CCCN(c2cnccn2)C1 (stereo unspecified) | 1.7 | 3 | -3 | 5721 | 1 | -3 | 6
O=C(COc1c(F)c(F)cc(F)c1F)NNC(=O)CC1CCS(=O)(=O)C1 (stereo unspecified) | -0.2 | -1 | / | 3686 | -9 | 1 | 2
O=C(Nc1ccc2c(c1)CCC2)c1ccc(F)cc1 | / | / | 8 | 2600 | -19 | / | /
COc1ccc2cnn(-c3ccc(OC(F)(F)F)cc3)c(=O)c2c1OC | 3.9 | 6 | 3 | / | -47 | 6 | 3
Cn1cnc2c1c(=O)n(Cc1cccc(F)c1)c(=O)n2C | 2.1 | 6 | -2 | 4097 | -2 | 13 | 3
O=C(NC(=O)c1cccc(OC(F)(F)C(F)F)c1)OC1CCS(=O)(=O)C1 (stereo unspecified) | 5.4 | 0 | 6 | 24101* | -17 | 5 | 9
COc1ccc(S(=O)(=O)Nc2ccc(F)c(Cl)c2)cc1OC | 8.5 | -6 | -6 | 2434 | 1 | 10 | 6
CC(C)(C)C1(O)CC(C(F)(F)F)=NN1C(=O)CCc1ccccc1 (stereo unspecified) | 10 | 2 | 13 | 2066 | -11 | 7 | 10
